HCMV UL50-53 inh: inhibitors of HCMV UL50-UL53 interaction, biochemical, HTRF; HCMV UL50-UL53 nuclear egress complex (human cytomegalovirus); normalized percent inhibition; inhibition, % (test concentration not listed); 190,000 tested, 0.15% active; AID 1918969, 2023;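 active means both replicates at 50% or more, plus weaker picks with an unusually low signal ratio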;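 further: stock transfer was 100 nL into about 20 µL; 0% = negative control wells and 100% = wells with untagged competitor protein; inactives centre near -12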
GIV Gai3 FP: inhibitors of GIV peptide binding to Galpha-i3, primary screen, biochemical, fluorescence polarization, FITC-GIV GBA peptide, rat Galphai3 | 90 min; hits give low values; scaled: aluminum fluoride 0%, vehicle 100% | percent of control (FP), % (test concentration not listed) | 210,000 tested, 0.42% active;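 active means replicate mean at 85% of control or lower, very high polarization wells dropped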;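 further: wells of about 15 µL received 100 nL stock; the first replicate is given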
Target sequence (P08753 whole entry, looked up): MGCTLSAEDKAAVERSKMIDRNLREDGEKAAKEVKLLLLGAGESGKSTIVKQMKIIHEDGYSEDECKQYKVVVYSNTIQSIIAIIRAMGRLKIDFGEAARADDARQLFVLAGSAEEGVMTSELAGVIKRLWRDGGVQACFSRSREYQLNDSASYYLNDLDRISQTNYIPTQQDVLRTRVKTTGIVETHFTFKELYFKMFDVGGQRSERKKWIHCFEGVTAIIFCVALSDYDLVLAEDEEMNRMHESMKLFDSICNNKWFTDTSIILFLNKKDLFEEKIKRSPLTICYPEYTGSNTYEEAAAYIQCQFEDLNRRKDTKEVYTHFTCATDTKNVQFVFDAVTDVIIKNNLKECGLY
Sa growth inh: S. aureus growth inhibition at 42 and 30 °C, primary screen, LtaS inhibitor project, RN4220, two temperatures. OD600, 20 h, 42 °C; hits give low values. relative growth, % (no concentration beside the values). 170,000 tested, 0.53% active. AID 720641, 2013;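 active means growth at 42 °C up to 50% and 20 or more points under that at 30 °C, or under 10% at both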;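 further: 300 nL library stock went into each well; scaled to the means of positive and negative controls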
Sa growth inh second temp: second read-out of Sa growth inh, no call of its own (marks repeat the call); relative growth, %; measured here: growth at 30 °C;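 optical density after 20 h as mean of two plates; 100% = untreated growth and lower means inhibition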
* hit, by the source's call; nt = not tested or not shown; & = joins results of further samples. Rows were taken by chance. Share with any hit: about 0.83%.

mol,HCMV UL50-53 inh,GIV Gai3 FP,Sa growth inh,Sa growth inh second temp
C=CCn1c(SCc2ccc3nonc3c2)nnc1-c1cccnc1,-61,104,116,87
CC(=O)N1CCN(c2csc3ccccc3c2=O)CC1,-57&-45,105&99,88,81
Cc1ccc(-c2cc(C(F)(F)F)n3nc(C(=O)Nc4ccc(Cl)cc4Cl)cc3n2)cc1,-16,97,71,86
N#Cc1ccc(OC(F)F)cc1,-2,nt,91,92
Cc1oc(-c2ccc(Cl)cc2)nc1CN1CCCC(C(=O)NCCc2ccccc2)C1 (stereo not given),-18,103,127,88
CCOC(=O)/C(N=O)=C(\O)C1CCN(C(=O)OCC)CC1,-21,103,99,87
CCN(CC)S(=O)(=O)c1nnc(NC(=O)COc2cccc(C)c2)s1,16,107,76,88
CC(=O)Nc1c(C)nn(-c2ccccc2)c1N1CCC(C(=O)Nc2ccc(C)cc2Cl)CC1,nt,104,83,92
CCOC(=O)Nc1nnc(C(C)C)s1,-2,106,101,113
C=CCn1c(NCc2c[nH]c3ccccc23)nc2ccccc21,2,102,93,70
O=C(NCCc1ccc(Cl)cc1)c1ccc(-n2nnc3cccnc32)cc1,-3,114,nt,nt
CCn1nc(C(=O)NC2CCCc3ccccc32)c2ccccc2c1=O (stereo not given),-20,nt,112,93
COc1ccc(S(=O)(=O)N2CCN(C)CC2)cc1C,-31,101,85,78
CCn1c(=O)cc(SCC(=O)N2CCCC2)c2ccccc21,0&-8,103&97,102,89
CCS(=O)(=O)C(=C1NCCO1)S(=O)(=O)CC,-22,104,95,85
O=C(Nc1cccnc1Oc1ncnc2cc(Cl)ccc12)c1cccs1,-18,106,85,87
O=C(Nc1ccc2oc(-c3cccnc3)nc2c1)c1ccc(-c2ccccc2OC(F)(F)F)o1,-58,108,88,85
CC1=CCC2COC(c3ccccc3)C1C2 (stereo not given),-3,nt,106,88
COc1ccc2c(c1)NC1(CCN(S(=O)(=O)c3ccc4c(c3)CCCC4)CC1)c1cccn1-2,-17,102,nt,nt
CN(C(=O)CSc1nc2ccc(NC(=O)COc3ccccc3Cl)cc2s1)c1ccccc1,-25,97,91,62

An excerpt from above, limited to Sa growth inh second temp, Sa growth inh and HCMV UL50-53 inh.
molecule,Sa growth inh second temp,Sa growth inh,HCMV UL50-53 inh
CCn1nc(C(=O)NC2CCCc3ccccc32)c2ccccc2c1=O (stereo not given),93,112,-20
CN(C(=O)CSc1nc2ccc(NC(=O)COc3ccccc3Cl)cc2s1)c1ccccc1,62,91,-25

Other results follow:
mol,HCMV UL50-53 inh,GIV Gai3 FP,Sa growth inh,Sa growth inh second temp
N#CC1=C(C#N)NC2(CCCCC2)C2CCCCC2=N1 (stereo not given),-42,104,88,84
CC1CN(CC(=O)Nc2ccccc2C(C)C)CC(C)O1 (stereo not given),-12,nt,74,87
CC(C)N(C(=O)COc1ccccc1C(=O)Nc1ccccc1)C(C)C,4,nt,125,90
COc1ccc(/C=C/c2nc(C#N)c(NCc3ccc(C)cc3)o2)cc1OC,11,98,111,88
CCCCN1CNC(=S)NC1,nt,106,87,95
Cc1cccc(CS(=O)(=O)c2ncc(Cl)c(C(=O)Nc3nnc(C(C)C)s3)n2)c1,-38,101,5.0*,27*
COc1ccccc1-c1nn(-c2cccc(C(F)(F)F)n2)c(=O)o1,-38,106,74,85
FC(F)(F)c1ccc(N2CCN(c3cc(C(F)(F)F)nc4ccccc34)CC2)nc1,-36,104,86,90
NC(=O)C1CCN(Cc2ccc(Cl)cc2)CC1,0,nt,111,88
Cc1onc(-c2ccccc2)c1C(=O)NC(=S)Nc1ccc(Cl)cc1,-14,108,63,48
O=C1NC(=O)N(c2ccccc2)C(=O)/C1=C\c1ccn(-c2cccc([N+](=O)[O-])c2)c1,-28,103,nt,nt
Cc1cn2c(=O)c(S(=O)(=O)NC(C)c3ccccc3)c(C)nc2s1 (stereo not given),nt,109,100,90
Cc1ccc(C(=O)c2c(NC(=O)CSc3nnnn3C)sc3c2CCCC3)cc1,-14,nt,95,94
COc1ccc(C(=O)NC(=O)CSc2n[nH]c(N)n2)cc1,-4,nt,80,103
CC(C)(C)NC(=O)NC(=O)Cn1nc(C(=O)O)c2ccccc2c1=O,-10,nt,104,97
NC(=O)c1sc(=S)n(-c2ccccc2)c1N,-82,nt,129,86
CCN(CC)CCOc1ccccc1,6,nt,90,93
CN1C(=O)Cc2cc(S(=O)(=O)N(C)CCc3noc(-c4ccccc4Cl)n3)ccc21,11,103,nt,nt
CC(C)(C)C(=O)Nc1nc(CC(=O)NC2CC2)cs1,-10,98,nt,nt
O=C1NC(/C=C/c2ccco2)Nc2sc3c(c21)CCN(Cc1ccccc1)C3 (stereo not given),-44,109,85,84
O=c1[nH]c(CN2CCC(Cc3ccccc3)CC2)nc2scc(-c3cccs3)c12,-42,nt,114,95
CCn1c(=O)c2sccc2n2c(CCC(=O)Nc3ccc(OC)cc3OC)nnc12,-18,101,104,91
O=C(Nc1ccccc1)Nn1cnc2ccccc2c1=O,-18,nt,80,86
N#Cc1c(-c2cccs2)cc(-c2ccc(C(=O)O)cc2)nc1SCc1cccs1,-19,nt,57,50
O=C(COc1ccccc1C(=O)O)NCCN1CCOCC1,8,nt,100,93
Cc1ccc(NC(=O)C2CCCN(C(=O)c3cnn(-c4ccc(F)cc4)c3-n3cccc3)C2)c(Cl)c1 (stereo not given),nt,107,111,93
Cc1ccc(C(=O)N(Cc2ccc(N(C)C)cc2)CC2CCCO2)cc1 (stereo not given),-25&-25,100&101,101,87
COc1ccc(-c2noc(CSc3nnc(-c4ccccc4)n3C)n2)cc1,-7,100,86,76
COc1ccc(OCC(O)Cn2c(NCCCn3ccnc3)nc3c2c(=O)[nH]c(=O)n3C)cc1 (stereo not given),-13,100,nt,nt
COc1ccc(C2=NN(C(=O)CCC(=O)O)C(c3ccccc3Cl)C2)cc1 (stereo not given),-29,100,nt,nt
Cn1c(-c2ccccc2)cn2cc(-c3ccccc3)nc12,nt,99,90,77
N#CC1=C(N)Oc2nc[nH]c(=O)c2C1c1ccncc1 (stereo not given),10,104&101,86&108,92&84
CCn1c(NCc2ccccc2O)nc2ccccc21,4,99,106,74
CNC(=O)Oc1ccc2c(c1)[C@]1(C)CCN(C)[C@@H]1N2C,-25&6&-3&-5,108&97,93&98,87&97
COc1ccncc1C(=O)Nc1cc(Cl)cc(Cl)c1,-4,100,129,95
Cc1ccc(SCCC(=O)NCCc2ccc(F)cc2)cc1,-23,nt,115,91
CC(=O)SCc1n[nH]c(=S)n1C(C)=O,-16,nt,94,99
CN1CCCC(OC(=O)c2ccc(F)cc2)C1 (stereo not given),-9,95,99,90
CSC(=NCc1ccco1)Nc1ccc(C)cc1C,-4,109,117,87
Cc1ccc(S(=O)(=O)NCCn2c(-c3ccc(F)cc3)nc3cccnc32)cc1,-6,111,nt,nt
COC(=O)Cn1c(=O)oc2ccc(Cl)cc21,-5,nt,112,77
COc1ccc(OCCOC(=O)c2cccn2C)cc1,-41,nt,92,93
COc1ccc(CN(C)C(=O)c2ccc(OC)c(OC)c2)cc1,4,98,97,96
CN(CC(=O)Nc1cccc(Cl)c1)S(=O)(=O)c1ccc2c(c1)CCCC(=O)N2,-11,110,nt,nt
COc1ccc(Cl)cc1N(C)C(=O)c1cc2cc3ccc(OC)c(Cl)c3nc2s1,-26,102,nt,nt
O=C(O)c1cccc(N2C(=O)c3ccc(C(=O)O)cc3C2=O)c1,-45,nt,94,88
CN(CCc1noc(-c2ccc(Cl)cc2)n1)S(=O)(=O)c1cccc2nsnc12,-9,98,nt,nt
CN(C)/C=N/C(=S)Nc1cccc(F)c1,8,101,96,96
COc1ccc(C2C(=O)N(C3CCCCC3)CC(=O)N2CCc2ccc(C)cc2)cc1OC (stereo not given),nt,99,107,90
CCCn1c(SCC(=O)Nc2ccccc2C(F)(F)F)nnc1-c1ccoc1C,-9,98,101,87

Next records follow:
mol,HCMV UL50-53 inh,GIV Gai3 FP,Sa growth inh,Sa growth inh second temp
O=C1OC(C(=O)NC2CCCCC2)Cc2ccccc21 (stereo not given),-26,108,98,96
Cc1ccc(C2=NN(CC(=O)NCCc3ccc(Cl)cc3)C(=O)CC2)cc1,nt,104,102,101
CC(C)C(=O)Nc1c(C(=O)NC(C)(C)C)oc2ccccc12,3,103,104,94
CC(C)(C)NC(=O)Cn1cc(S(=O)(=O)Cc2ccc(F)cc2)c2ccccc21,nt,98,89,88
COc1ccc(OC)c(CNC(=O)CN(c2ccc(C)cc2)S(=O)(=O)N(C)C)c1,-54&-10,100&96,97,89
CCOc1ccccc1NC(=O)CSc1nc2ccccc2nc1N1CCOCC1,11,104,103,95
O=C(C1COc2cc(S(=O)(=O)N3CCCC3)ccc2O1)N1CCCC1 (stereo not given),0,93,108,93
O=C(Cc1csc(NC(=O)Nc2ccc(Cl)cc2)n1)Nc1cccc(Cl)c1,-15,104,nt,nt
CN(CC(=O)Nc1ccc(Cl)c(Cl)c1)CC(=O)Nc1ccc2[nH]c(=O)[nH]c2c1,-5,nt,107,98
CC(Oc1ccc(/C=C2\C(=O)NC(=O)N(c3ccc4c(c3)OCO4)C2=O)cc1)C(=O)O (stereo not given),-1,104,nt,nt
Cc1ccccc1NS(=O)(=O)c1cc(Br)cnc1N,-22,104,83,70
Cn1c(N)c(C(=O)Cn2nnc3ccccc3c2=O)c(=O)n(C)c1=O,-26,nt,106,87
O=C(c1cnn(-c2ccc(F)cc2)c1-n1cccc1)N1CCN(c2ccc(Cl)cc2)CC1,nt,101,112,80
Cc1ccc(C(=O)c2cccc(N)c2)cc1C,4,nt,72,96
Cc1cc(C)c2sc(N3CCN(C(=O)c4ccc(N(C)C)cc4)CC3)nc2c1,nt,100,100,96
Cc1noc(-c2ccccc2OCC(=O)Nc2nc(C(C)C)cs2)n1,-18,101,nt,nt
COc1ccccc1CNC(=O)CN1C(=O)COc2ccc(C)cc21,-21,97,nt,nt
CN1C(=O)c2ccc(NC(=O)CCCc3nc(-c4cccnc4)no3)cc2C1=O,-68,105,nt,nt
Cc1cc(C)c(C#N)c(N2CCN(c3cccc(C)c3C)CC2)n1,15,104,84,100
O=C(CC(=O)N1CCc2ccccc2C1)N1CCc2ccccc2C1,0,nt,96,88
O=C(CSc1ccc(-c2ccncc2)nn1)N1CCCCC1,nt,99,92,81
O=C(OCC(=O)c1c[nH]c2ccccc12)c1cccc(O)c1,-27,nt,99,67
Cc1ccc(-c2c(C)noc2C)cc1S(=O)(=O)NC1CCN(Cc2ccccc2)CC1,12,108,nt,nt
CC(C)c1ccccc1NC(=O)COc1ccccc1F,-34,nt,114,86
COc1ccccc1NC(=O)CCCc1nnc2n(C)c(=O)c3sccc3n12,-9,105,105,98
CCOC(=O)c1c2n(c3ccc(OC(C)=O)cc13)CCC2,-14,96,92,80
COC(=O)CNc1ccc(Br)cc1,-14,106,86,90
Cn1c(CCc2cccc(NC(=O)CN3C(=O)c4ccccc4C3=O)c2)nc2ccccc21,-17,102,nt,nt
Cc1ccccc1NS(=O)(=O)c1ccc2oc(=O)ccc2c1,-40,103,100,89
COc1ccc2c(=O)c(N3C(=O)c4ccccc4C3=O)c(C)oc2c1,0,92,93,95

5 structures from above, ordered by formula weight, smallest number first:
mol,HCMV UL50-53 inh,GIV Gai3 FP,Sa growth inh,Sa growth inh second temp
CC(C)c1ccccc1NC(=O)COc1ccccc1F,-34,nt,114,86
O=C(OCC(=O)c1c[nH]c2ccccc12)c1cccc(O)c1,-27,nt,99,67
Cc1ccccc1NS(=O)(=O)c1ccc2oc(=O)ccc2c1,-40,103,100,89
COc1ccccc1NC(=O)CCCc1nnc2n(C)c(=O)c3sccc3n12,-9,105,105,98
Cn1c(CCc2cccc(NC(=O)CN3C(=O)c4ccccc4C3=O)c2)nc2ccccc21,-17,102,nt,nt

Later entries.
mol,HCMV UL50-53 inh,GIV Gai3 FP,Sa growth inh,Sa growth inh second temp
CSc1nnc2c(n1)OC(C1CC=C(C)CC1)Nc1ccccc1-2 (stereo not given),nt,269,118,87
Cc1ccc(C2CC(=O)C3=C(C2)Nc2ccccc2NC3c2cccnc2)cc1 (stereo not given),-3,nt,92,79
Cc1ccsc1CNC(=O)Nc1ccc(C(F)(F)F)cc1,33,101,115,93
Cc1ccc(C)c(CSC2=NN3CCCC(=O)N=C3S2)c1,-26,102,97,83
CCOC(=O)c1ccc(NCc2cc(Br)ccc2O)cc1,-8,100,72,57
CCn1cnc(S(=O)(=O)N2CCCC(C(=O)N3CCc4ccccc4C3)C2)c1 (stereo not given),-6,102,nt,nt
CN1C(=O)/C(=C(\C#N)C(=O)Nc2cc(Cl)ccc2Cl)c2ccccc21,-19,nt,116,86

From PubChem BioAssay
